Screening results: PubChem BioAssay, National Center for Advancing Translational Sciences (NCATS)
GLA inh pH 4.5 – blocks human alpha-galactosidase A at pH 4.5; P06280; purified enzyme, 4-MU-alpha-Gal fluorescence, pH 4.5; activity change, negative = inhibition, % at 105 µM; 230,000 tested, under 10 active; inconclusive = small, poorly fitted or top-dose-only inhibition, or a rising curve; inactive = flat fitted curve, though single readings scatter; no compound was filed as active;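 further: 0% = full activity with enzyme and -100% = basal without enzyme; dose as in the result columns while the protocol names 77 µM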
Target sequence (P06280 whole entry, looked up): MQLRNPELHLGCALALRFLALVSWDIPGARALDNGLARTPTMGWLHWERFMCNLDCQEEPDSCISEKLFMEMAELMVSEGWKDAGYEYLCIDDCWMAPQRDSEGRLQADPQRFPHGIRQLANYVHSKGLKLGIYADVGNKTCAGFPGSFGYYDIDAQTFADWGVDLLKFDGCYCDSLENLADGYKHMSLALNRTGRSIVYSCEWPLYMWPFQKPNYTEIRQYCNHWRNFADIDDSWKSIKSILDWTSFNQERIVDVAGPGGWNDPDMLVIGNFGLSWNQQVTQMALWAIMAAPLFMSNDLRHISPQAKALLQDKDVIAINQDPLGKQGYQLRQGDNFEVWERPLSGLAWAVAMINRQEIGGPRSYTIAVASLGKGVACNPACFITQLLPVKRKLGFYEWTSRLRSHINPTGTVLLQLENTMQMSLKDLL
Rango release inh – prevents RanGTP from dissociating the Rango-importin beta complex; Biochemical FRET Rango-importin beta, RanGTP-induced dissociation; hit rate 0.071% among 340,000; AID 540253; Potency, µM (series often up to 46.1 µM), for the others: at the highest dose activity change, negative = inhibition; active means falling FRET ratio curve, often poorly fitted, with flat reads before Ran was added; inconclusive means other falling curves, or compound fluorescence or quenching; inactive means flat or rising ratio curve;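 further: potency means the concentration at half of the fitted maximal effect; % of control where 0% means no effect; nearly all actives have a fitted effect of over 45% in size; -100% = wells without RanGTP and RCC1; the record marks most hits as doubtful in a second field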
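Two FRET readings bracket the reaction: one 5 min after compound meets Rango–importin beta, another 45 min after RanGTP-RCC1 (0.6 uM Ran, 0.2 uM RCC1, 2 mM GTP) is added. Only the second defines inhibition.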
miR-21 reporter – raises the signal of a miR-21 reporter | Potency, µM (highest dose often 38.3 µM), without a hit: at the top dose reporter change, positive = more light | HeLa miR-21 FLuc reporter, luciferase, 48 h | 340,000 tested, under 10 active; active = well fitted rising curve with a large enough effect; inconclusive = small, poorly fitted or top-dose-only effect; inactive = no such curve, though single readings can be large or run the other way;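 further: % of control where 0% means no effect; miR-21 action dims this reporter so a rising signal means less miR-21 action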
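Luminescence from a firefly luciferase reporter carrying a miR-21 binding site downstream, stably expressed under a CMV promoter in HeLa cells that make miR-21 endogenously, reports miRNA modulation after 48 h compound exposure up to approximately 40uM final.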
Rango-impB inh – inhibitors of Rango-importin beta complex formation; Rango CFP/YFP FRET sensor + importin beta, 45 min; Potency, µM (top dose mostly 92.2 µM), without a hit: top-dose inhibition of complex formation; Q14974; hit rate 0.031% among 340,000; active = rising FRET ratio curve, often small or poorly fitted; inconclusive = mostly compound fluorescence or quenching in the first reads; inactive = flat curves in all reads;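 further: potency means the concentration at half of the fitted maximal effect; 0% = DMSO wells and 100% = buffer wells lacking importin beta; nearly all actives have a fitted effect of over 15% in size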
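Inhibition scored from the CFP 486 nm/YFP 530 nm FRET ratio 45 min after adding 0.125 microM importin beta to 50 nM Rango biosensor preincubated 5 min with compound (room temperature, PBS with DTT, Tween-20, BSA). No-importin wells as positive control.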
The depositor's hits bear a star; ? = inconclusive; / = not tested or not shown; & = joins results of further samples.

SMILES	GLA inh pH 4.5	Rango release inh	miR-21 reporter	Rango-impB inh
CC(NCC(O)COc1ccc2ccccc2c1)c1ccccc1 (stereo not drawn)	/	-10%	5%	0.2%
O=C1CCC(C(=O)Nc2cccc(C(F)(F)F)c2)N1 (stereo not drawn)	-8	1%	-6%	-0.2%
O=C(c1ccc(F)cc1)N1CCN(c2cnn(-c3ccccc3)c(=O)c2Cl)CC1	1	2%	1%	-0.1%
COc1ccccc1C(=O)COC(=O)c1nc2nc(C)cc(C)n2n1	/	1%	/	3.6%
CCOc1ccccc1N(CC(=O)Nc1ccccc1F)S(=O)(=O)c1ccccc1	/	-3%	-5%	?
Cc1cccc(NC(=O)C(Cc2ccccc2)n2cccc2)c1 (stereo not drawn)	-7	8%	4%	3.4%
COc1cc2c(cc1NC(=O)COC(=O)C1CC(=O)N(Cc3ccco3)C1)oc1ccccc12 (stereo not drawn)	1	4%	-35%	0.6%
Cc1ccc2cc(CN(C(=O)c3ccco3)c3ccccc3C)c(=O)[nH]c2c1	1	2%	-4%	0.0%
CC(C)(C)OC(=O)NCc1n[nH]c(=S)n1C1CC1	1	28%	-2%	5.7%
CCOC(=O)C(=O)N/N=C/c1ccco1	-6	21%	10%	-1.0%
O=C(COC(=O)/C=C/c1ccc(OC(F)F)cc1)NC(=O)NC1CCCCC1	/	0%	/	-2.1%
CCOc1ccc(-c2nn[nH]n2)cc1OCC	-7	-10%	-4%	?

Molecules shown so far with sulfur:
SMILES	GLA inh pH 4.5	Rango release inh	miR-21 reporter	Rango-impB inh
CCOc1ccccc1N(CC(=O)Nc1ccccc1F)S(=O)(=O)c1ccccc1	/	-3%	-5%	?
CC(C)(C)OC(=O)NCc1n[nH]c(=S)n1C1CC1	1	28%	-2%	5.7%

The results go on:
SMILES	GLA inh pH 4.5	Rango release inh	miR-21 reporter	Rango-impB inh
CCOC(=O)N1CCc2c(sc(NC(=O)C3COc4ccccc4O3)c2C(N)=O)C1 (stereo not drawn)	/	-5%	-15%	-0.5%
c1ccc(COCC2CCNCC2)cc1	/	25%	0%	-0.8%
CCCC(NC(=O)Cc1c(C)c2c(cc(C)c3c(C)coc32)oc1=O)C(=O)O (stereo not drawn)	/	-2%	-1%	-2.3%
CCCCCCc1nc(C(N)=O)c2[nH]c(=O)n(-c3ccc(OC)cc3OC)c2n1	/	-10%	-6%	2.0%
CC(=O)C1C(=O)c2c(cccc2[N+](=O)[O-])C1=Nc1cccc(Cl)c1 (stereo not drawn)	-8	-4%	-2%	-0.8%
COc1ccc(C2NC(=S)NC3=C2N2CCC3CC2)cc1 (stereo not drawn)	0	-3%	-2%	14%
O=C(CNC(=O)C1CCCCC1)Nc1ccc(F)c(Cl)c1	-7	21%	-10%	-0.2%
FC(F)(F)c1cc(-c2cccs2)nc2ncnn12	?	8%	-9%	-2.2%
Cc1ccc(C)c(N2CC(C(=O)Nc3cc(C)on3)CC2=O)c1 (stereo not drawn)	/	0%	0%	0.0%
Cc1ccccc1NC(=O)C1CC(=O)N(c2ccc3c4c(cccc24)CC3)C1 (stereo not drawn)	10	-10%	2%	2.0%
CCCCn1c(N)c(N(CCOC)C(=O)CCS(=O)(=O)c2ccc(Cl)cc2)c(=O)[nH]c1=O	/	7%	/	4.2%
COC(=O)[C@@H]1C[C@@]2(O)[C@H](O)[C@H](O)[C@H](O)C[C@H]2N1Cc1cc(OC)cc(OC)c1	-10&2	1%	0%	-0.4%

5 entries from above, bar-delimited:
SMILES | GLA inh pH 4.5 | Rango release inh | miR-21 reporter | Rango-impB inh
CCOC(=O)N1CCc2c(sc(NC(=O)C3COc4ccccc4O3)c2C(N)=O)C1 (stereo not drawn) | / | -5% | -15% | -0.5%
FC(F)(F)c1cc(-c2cccs2)nc2ncnn12 | ? | 8% | -9% | -2.2%
Cc1ccc(C)c(N2CC(C(=O)Nc3cc(C)on3)CC2=O)c1 (stereo not drawn) | / | 0% | 0% | 0.0%
COc1ccc(C2NC(=S)NC3=C2N2CCC3CC2)cc1 (stereo not drawn) | 0 | -3% | -2% | 14%
CCCCn1c(N)c(N(CCOC)C(=O)CCS(=O)(=O)c2ccc(Cl)cc2)c(=O)[nH]c1=O | / | 7% | / | 4.2%

Following part:
SMILES	GLA inh pH 4.5	Rango release inh	miR-21 reporter	Rango-impB inh
OCCC1CN(Cc2cnc(N3CCCC3)s2)CCN1C1CCCC1 (stereo not drawn)	4	53%	-6%	2.0%
Cc1ccc(S(=O)(=O)CCC(=O)OCC(=O)NCc2ccccc2)cc1	/	0%	/	0.5%
c1ccc(CNc2nc3ccccc3n2CCN2CCOCC2)nc1	-3	17%	-8%	1.1%
COc1cccc(CN2CC(C(=O)N(C)Cc3ccnc4ccccc34)CCC2=O)c1 (stereo not drawn)	/	-6%	-5%	-1.4%
C=C(C)COc1ccc(-c2[nH]ncc2-c2ccc(OC)c(OC)c2)c(O)c1	2	?	22%	2.5%
COC(=O)N/N=C/c1cccc([N+](=O)[O-])c1	0	-17%	-1%	-1.8%
CC(=O)c1cccc(NC(=O)COC(=O)c2cccs2)c1	7	-12%	-1%	5.0%
COc1cccc(/C(O)=C2/C(=O)C(=O)N(c3cc(C)on3)C2c2cccs2)c1 (stereo not drawn)	7	-10%	25%	?
N#C/C(=C\C1CC2C=CC1C2)c1nc2ccccc2[nH]1 (stereo not drawn)	1	-25%	-6%	?
Cc1ccc(C(=O)OCC(=O)NCc2ccc3c(c2)OCO3)s1	2	-1%	-3%	1.3%
CN1C(C)(C)CCCC1(C)C	-9&5&6	2%	/	-4.9%
Cc1ccccc1-n1c(=O)c(C#N)cc2c(=O)n3ccccc3nc21	?	?	-3%	?
NC(=O)c1nn(-c2ccccc2)nc1N	0	20%	-18%	0.2%
Cc1cccc(OCCCC(=O)NC(C)c2ccccc2)c1 (stereo not drawn)	1	16%	-1%	1.8%
CCOC(=O)N1CCC(c2nc3ccccc3[nH]2)CC1	2	0%	-2%	-3.4%
Cc1[nH]c2ccccc2c1C(=O)C(=O)NC1CC1	/	2%	-30%	2.8%
N/C(Cn1nnc(-c2ccccc2)n1)=N\O	-2	-7%	-3%	-0.8%
O=C(NCCSCc1ccco1)Nc1cccc(Cl)c1	-4	11%	-36%	0.7%
O=C(NCCS(=O)(=O)N1CCN(Cc2ccccc2)CC1)c1ccccc1	/	-10%	/	-0.4%
Cc1ccnc(NC(=O)C2CCN(S(=O)(=O)c3c(C)c(C)cc(C)c3C)CC2)c1	/	7%	22%	0.2%
NS(=O)(=O)c1ccc(CCNC(=O)c2ccc(Cl)nc2)cc1	/	-22%	-3%	-7.3%
O=C(CCn1c2c(c3ccccc31)CCCC2)NNC(=O)c1ccccc1Cl	10	-2%	-13%	-1.1%
C/C(CC(=O)Nc1cccc(C(F)(F)F)c1)=N\NC(=O)c1cnccn1	/	17%	-17%	-2.1%
O=C(CN1CCOCC1)Nc1ccccc1NC(=O)C1CCN(c2ncccn2)CC1	7	0%	1%	1.9%
CCCC(C)NC(=O)/C=C/c1cccc([N+](=O)[O-])c1 (stereo not drawn)	-4	5%	-15%	-3.3%
CCC(Sc1nc2cc(OC)c(OC)cc2c(=O)n1CCc1ccc(S(N)(=O)=O)cc1)C(=O)NCCOC (stereo not drawn)	2	13%	-5%	-3.0%
CC(C)C1(c2ccsc2)NC(=O)NC1=O (stereo not drawn)	/	2%	/	0.6%
CCc1cccc(NC(=O)NC(=O)Cn2nnc(C(=O)OC)c2C(=O)OC)c1	7	-5%	-10%	2.2%
O=C(Nc1nccs1)c1cc(-c2ccncc2)nc2ccccc12	-1	0%	9%	-1.2%
Cc1cccc(-n2cnc3sc(C)c(C)c3c2=O)c1	0	7%	-26%	-3.2%
Cc1cccc(C)c1NC(=O)Nc1ccc2c(c1)OCO2	5	-11%	-15%	-2.1%
CC(C)(C)S(=O)(=O)c1ccc(S(=O)(=O)C(C)(C)C)s1	1	/	0%	/
Cc1noc(NS(=O)(=O)c2ccc(N/C=C\C(=O)c3cccc4ccccc34)cc2)c1C	-3	?	-47%	?
COC(=O)[C@H](C)NC(=O)Nc1ccccc1C(F)(F)F	-5	-2%	-1%	1.8%
CC1(NC(=O)c2cc(-c3cccs3)nn2-c2ccccc2)CCS(=O)(=O)C1 (stereo not drawn)	/	0%	/	0.4%
Cc1nc(-c2ccc(Cl)cc2)sc1C1(C)CC(c2ccncc2)=NO1 (stereo not drawn)	/	-1%	/	-2.0%

In the list so far, these have a furan ring, fused or not.
SMILES	GLA inh pH 4.5	Rango release inh	miR-21 reporter	Rango-impB inh
COc1cc2c(cc1NC(=O)COC(=O)C1CC(=O)N(Cc3ccco3)C1)oc1ccccc12 (stereo not drawn)	1	4%	-35%	0.6%
Cc1ccc2cc(CN(C(=O)c3ccco3)c3ccccc3C)c(=O)[nH]c2c1	1	2%	-4%	0.0%
CCOC(=O)C(=O)N/N=C/c1ccco1	-6	21%	10%	-1.0%
CCCC(NC(=O)Cc1c(C)c2c(cc(C)c3c(C)coc32)oc1=O)C(=O)O (stereo not drawn)	/	-2%	-1%	-2.3%
O=C(NCCSCc1ccco1)Nc1cccc(Cl)c1	-4	11%	-36%	0.7%

Other records follow.
SMILES	GLA inh pH 4.5	Rango release inh	miR-21 reporter	Rango-impB inh
CCCCSc1n[nH]c(N)n1	5	4%	-11%	0.7%
O=C(NCc1ccccc1Cl)C1CCC(=O)N(CCCN2CCCC2=O)C1 (stereo not drawn)	/	7%	1%	4.8%
COc1ccc(NC(=O)C2CC(=O)N(Cc3ccc(C)cc3)C2)cc1S(=O)(=O)N1CCCCC1 (stereo not drawn)	-23	-2%	2%	-0.6%
CCN=C(NCC)SC1CC(=O)N(c2cccc(OCC)c2)C1=O (stereo not drawn)	-13	-5%	1%	-4.1%
CCOC(=O)c1c(C)c(C(=O)NCCCOC)c(C)n1C	-2	24%	-4%	5.7%
O=C(NNc1ccccc1Cl)C(O)(c1cccc(C(F)(F)F)c1)c1cccc(C(F)(F)F)c1	-4	-14%	?	-1.5%
C=CCC[C@H](Cc1ccc(F)cc1)C(=O)OC[C@@H](Cc1c[nH]c2ccccc12)NC(=O)[C@H](CC=C)CC(=O)N[C@H](CO)Cc1ccccc1	/	15%	/	-2.0%
COc1ccccc1NC(=O)N1CCCC1C(=O)Nc1ccc(NC(C)=O)cc1 (stereo not drawn)	-5	2%	2%	1.5%
Cc1noc(C)c1S(=O)(=O)N(CC(=O)NCc1ccc2c(c1)OCO2)c1ccc(C(C)C)cc1	-6	-3%	4%	0.1%
CCN(C(C)=O)c1cnc(C=NNC(N)=S)c2ccccc12	/	2%	/	5.0%
CC1=NN(C(=O)Cc2ccccc2)C(O)(c2ccccc2)C1 (stereo not drawn)	-3	-7%	-13%	5.2%
COc1ccc(N(CC(=O)Nc2ccc(F)c(Cl)c2)S(=O)(=O)c2c(C)noc2C)cc1	-8	1%	5%	3.7%
CN(C)CCCNC(=O)C(=O)NCC(c1cccs1)S(=O)(=O)c1ccc(F)cc1 (stereo not drawn)	/	14%	/	-0.3%
O=C(CCl)c1cc2c3c(c1)CC(=O)N3CCC2	/	-12%	24%	8.4%
C=CCNC(=S)NNC(=O)C(CCC(C)C)CC(C)O (stereo not drawn)	11	0%	1%	-0.9%
CCOC(=O)CNC(=O)CNC(=O)c1ccc(OC(C)C)cc1	-19	-8%	-10%	-2.4%
Cn1ccs/c1=N\S(=O)(=O)c1ccc(Br)cc1	-3	-5%	0%	-1.3%
CCOC(=O)Cn1c(=S)[nH]c2c(oc3ccc(Cl)cc32)c1=O	-1	10%	-1%	2.5%
Cc1cc(C)c(N(CC(=O)NC(C)(C)C)C(=O)CNC(=O)c2cccs2)c(C)c1	8	-3%	0%	0.0%
CN(C)C1=NC[C@H](Cc2ccccc2)N1CCCCc1ccccc1	/	-17%	/	4.2%
CC1CCN(c2ncccc2C(=O)O)CC1	2	-3%	-6%	-0.2%
Cc1ccc(NC(=O)CSc2nnc(-c3ccncc3)n2C)cc1S(=O)(=O)N1CCOCC1	-5	1%	3%	1.9%
O=C(Nc1ccccc1N1CCOCC1)c1ccc(F)c(S(=O)(=O)N2CCOCC2)c1	/	-14%	/	?
CC(C)NS(=O)(=O)c1ccc(OCC(=O)Nc2ccccc2F)cc1	1	0%	-18%	0.4%

An excerpt; the hit share may differ from the screen's.
